DUX4 inh: DUX4-mediated transcription inhibition; 293T-iDUX4 ZSCAN4-Gaussia luciferase reporter, 24 h; active compounds read low; activity change, negative = inhibition, % (no concentration beside the values); actives 0.8% (n = 37,000); AID 1224904;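 active means -10% or lower and over 25 points stronger than a control reporter; inconclusive means -10% or lower with a smaller gap; inactive means above -10%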;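 further: 0% = median of neutral control wells and -100% = median of positive control wells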
DUX4 inh difference: further read-out of DUX4 inh, marked with its call; Gaussia minus Italica difference, %; measured here: selective DUX4 reporter inhibition;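 worked out from the two reporters; negative = selective loss of the DUX4 reporter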
DUX4 inh control: also measured in DUX4 inh; calls as there; activity change, negative = inhibition, %; measured here: Italica tet-on control reporter;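 0 = neutral control and -100 = positive control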
* = called active by the depositor; ? = inconclusive; · = not tested or not shown.

Values run as follows: DUX4 inh, DUX4 inh difference, DUX4 inh control
> COc1ccc(NC(=O)N2CCCCN3[C@H](C2)[C@H](c2ccc(C4=CCCCC4)cc2)[C@@H]3CO)cc1
    4, 12, -7.9
> O=S(=O)(c1cccs1)N1CCCCN2[C@@H](CO)[C@@H](c3ccc(Br)cc3)[C@@H]2C1
    ?, ·, ·
> COc1ccc(S(=O)(=O)N2CC[C@H]3[C@@H](CO)N(C)c4ccc(C#Cc5ccccc5OC)cc4[C@H]32)cc1
    -9, -11, 1.8
> CCN(C[C@@H]1[C@@H](c2ccccc2)[C@@H](CO)N1CC1CC1)C(=O)c1ccccc1F
    0, -5, 4.8
> COc1ccc2c3c([nH]c2c1)[C@@H](CO)N(C(=O)NC(C)C)CC31CCN(C(=O)C2CCCCC2)CC1
    -5, 1, -5.3
> O=C(CC1CC1)N1CC[C@@H]2[C@@H](CO)Nc3ccc(-c4cccc(F)c4)cc3[C@@H]21
    -4, 0, -4.3
> CO[C@@H]1CC[C@@H]2CCN(C)C(=O)[C@H](C)[C@H](OC)CN(C)C(=O)c3cccc(C#N)c3OC[C@@H]1O2
    4, 0, 3.4
> C[C@H]1CN([C@@H](C)CO)S(=O)(=O)c2ccc(-c3cccc(F)c3)cc2O[C@H]1CN(C)S(=O)(=O)c1ccccc1
    -1, -3, 2.2
> COCC#Cc1ccc2c(c1)O[C@@H](CN(C)S(=O)(=O)c1ccc(OC)cc1)[C@@H](C)CN([C@@H](C)CO)S2(=O)=O
    0, -2, 2.7
> COc1ccc(CN2CC3(CN(C(=O)C4CCOCC4)C3)c3c(n(C)c4cc(OC)ccc34)[C@@H]2CO)cc1
    13, 6, 6.5
> CN1[C@@H]2Cn3c(ccc(-c4ccncc4)c3=O)[C@H]1[C@@H](C(=O)NCC1CCCCC1)[C@@H]2CO
    5, 2, 3.0
> C[C@H](CO)N1C[C@H](C)[C@H](CN(C)C(=O)Nc2cccc(F)c2)Oc2cc(C#CC3(O)CCCC3)ccc2S1(=O)=O
    4, 3, 1.3
> CCS(=O)(=O)N1CCC2(CC1)CN[C@@H](CO)c1c2c2ccc(OC)cc2n1C
    21, 18, 2.8
> CN(C)C(=O)[C@H]1[C@H](CO)[C@H]2Cn3c(ccc(C4=CCCC4)c3=O)[C@@H]1N2Cc1cccnc1
    0, -2, 1.4
> Cc1noc(C)c1S(=O)(=O)Nc1ccc2c(c1)C(=O)N([C@H](C)CO)C[C@@H](C)[C@H](CN(C)C(=O)Nc1cccc3ccccc13)OCCCC[C@@H](C)O2
    4, 1, 2.4
> C[C@H](CO)N1C[C@H](C)[C@@H](CN(C)C(=O)NC2CCCC2)Oc2ncc(C3=CCCC3)cc2C1=O
    2, 1, 1.2
> O=C([C@H]1[C@H](CO)[C@H]2Cn3c(ccc(-c4ccccc4)c3=O)[C@H]2N1CCC(F)(F)F)N1CCOCC1
    2, 1, 1.1
> O=C(C[C@H]1C[C@H]2c3cc(NC(=O)Nc4ccccc4F)ccc3O[C@H]2[C@@H](CO)O1)NCCc1ccccc1
    ?, ·, ·
> COCC(=O)N1C[C@H](C)[C@H](OC)CN(C)C(=O)c2ccc(NC(=O)Nc3cccc(F)c3)cc2OC[C@@H]1C
    6, 3, 2.7
> CC(C)C[C@H]1COCc2cn(nn2)CC[C@@H](Cc2ccc(Cl)cc2)C(=O)N1
    -6, -3, -2.3
> CCC(=O)N1CC2(C1)[C@H](c1ccccc1)[C@H](CO)N2CC1CC1
    3, 4, -0.5
> COc1ccc(S(=O)(=O)Nc2ccc3c(c2)[C@@H]2C[C@H](CC(=O)N(C)C)O[C@@H](CO)[C@@H]2O3)cc1
    5, 1, 3.8
> COc1ccc(NC(=O)Nc2ccc3c(c2)C(=O)N([C@@H](C)CO)C[C@H](C)[C@@H](CN(C)C(=O)c2ccccc2)OCCCC[C@H](C)O3)cc1
    -2, 2, -3.9
> O=C(C1CCOCC1)N1CC2(C1)[C@H](c1ccccc1)[C@H](CO)N2Cc1ccccc1F
    -3, -10, 7.2
> C[C@H](CO)N1C[C@H](C)[C@H](CN(C)C(=O)NC2CCCCC2)Oc2ncc(-c3cccc(F)c3)cc2C1=O
    -1, 1, -2.1
> CO[C@H]1CC[C@@H]2CCN(C)C(=O)[C@@H](C)CN(C)C(=O)c3cc(C#N)ccc3OC[C@H]1O2
    -1, -4, 3.1
> COCC(=O)N1[C@@H]2c3ccc(C4=CCCCC4)c(=O)n3C[C@@H]2[C@@H](CO)[C@@H]1C(=O)N1CCOCC1
    -4, -7, 3.0
> COCC#Cc1ccc([C@@H]2[C@H](CO)N3C(=O)CN(C(=O)Nc4ccc(F)cc4)C[C@@H]23)cc1
    0, -3, 3.8
> O=C(c1cccnc1)N1CC[C@H]2[C@H](CO)Nc3ccc(-c4ccccc4)cc3[C@H]21
    11, 16, -5.4
> O=S(=O)(c1ccccc1)N1CCCCN2[C@@H](CO)[C@H](c3ccc(C#Cc4cccnc4)cc3)[C@@H]2C1
    -6, -12, 5.8
> C[C@H]1CN([C@@H](C)CO)C(=O)CCCn2cc(nn2)CO[C@H]1CN(C)C(=O)c1ccc2ccn(C)c2c1
    -1, 1, -1.3
> OC[C@H]1[C@H](c2ccc(C#Cc3ccccc3)cc2)[C@@H]2CN(Cc3cncnc3)CCCCN12
    16, -4, 19
> C[C@@H]1CN([C@@H](C)CO)C(=O)CCCn2nncc2CO[C@H]1CN(C)C
    5, 2, 3.2
> COc1ccc(C#Cc2cccc(-c3nc(C(=O)O)cc4c3[C@@H](CCO)N(S(=O)C(C)(C)C)C4)c2)cc1OC (stereo partly drawn)
    0, 1, -1.1
> CC(=O)N1[C@@H]2c3ccc(C4=CCCC4)c(=O)n3C[C@H]1[C@H](CO)[C@H]2C(=O)NCC1CC1
    8, 2, 5.9
> CCCNC(=O)N1[C@H](CO)[C@H](c2ccc(-c3ccccc3)cc2)[C@@H]1CNC(C)=O
    -2, -4, 2.0
> C[C@H](CO)N1C[C@H](C)[C@H](CN(C)C(=O)Nc2ccc(F)cc2)Oc2c(NS(=O)(=O)c3cn(C)cn3)cccc2C1=O
    0, -4, 4.6
> COCC(=O)Nc1ccc2c(c1)OC[C@@H](C)N(Cc1ccncc1)C[C@@H](C)[C@@H](OC)CN(C)C2=O
    -9, -15, 5.9
> O=C(c1ccccc1F)N1C[C@H]2[C@@H](c3ccccc31)[C@@H](CO)N2C(=O)C1CCCC1
    -3, 1, -4.3
> CNC[C@H]1Oc2ccc(NC(=O)CCN3CCOCC3)cc2CC(=O)N([C@H](C)CO)C[C@H]1C
    1, -1, 2.2
> CNC(=O)C[C@H]1CC[C@H]2[C@H](COc3ccc(NC(=O)Nc4ccccc4OC)cc3C(=O)N2C)O1
    7, 22, -15
> CNC(=O)C[C@H]1CC[C@@H]2[C@@H](COc3ccc(NS(=O)(=O)c4ccc(F)cc4)cc3C(=O)N2C)O1
    -1, 0, -1.5
> COc1cccc(S(=O)(=O)N2C[C@@H](O)COC[C@@H]3O[C@@H](CC(=O)N4CCN(C)CC4)CC[C@H]32)c1
    8, 10, -2.3
> CNC[C@@H]1Oc2ccc(N(C)C)cc2C(=O)N([C@@H](C)CO)C[C@H]1C
    0, -2, 2.1
> CC(=O)NC[C@H]1[C@@H](c2ccc(-c3ccccc3)cc2)[C@H](CO)N1C(=O)C1CCC1
    -6, -9, 2.6
> O=C(C[C@H]1CC[C@H]2[C@@H](COC[C@H](O)CN2C(=O)Nc2cc(Cl)cc(Cl)c2)O1)N1CCCCC1
    ?, ·, ·
> CN1C(=O)c2cc(NS(=O)(=O)c3ccc(F)cc3)ccc2OC[C@H]2O[C@@H](CC(=O)NCC(F)(F)F)CC[C@@H]21
    4, 2, 2.1
> COc1ccc(NC(=O)Nc2ccc3c(c2)[C@@H]2C[C@H](CC(=O)N4CCN(C)CC4)O[C@@H](CO)[C@@H]2O3)cc1
    2, 9, -6.9
> COc1ccccc1CNC(=O)C[C@H]1C[C@H]2c3cc(NC(=O)NC4CCCC4)ccc3O[C@H]2[C@@H](CO)O1
    -4, 0, -3.1
> CCCNC(=O)N1[C@H](C#N)[C@H](c2ccc(C3=CCCCC3)cc2)[C@@H]1CO
    1, -2, 2.8
> COc1ccc(S(=O)(=O)N(C)C[C@H]2Oc3ccc(NC(=O)Cc4cn(C)c5ccccc45)cc3C(=O)N([C@H](C)CO)C[C@@H]2C)cc1
    -4, -3, -0.5
> O=C([C@@H]1[C@@H](CO)[C@@H]2Cn3c(cccc3=O)[C@@H]2N1Cc1ccncc1)N1CCCCC1
    2, -7, 8.8
> O=C(c1ccc(F)cc1)N1C[C@@H]2N[C@H](C1)C2c1ccc(-c2ccccc2F)cc1 (stereo partly drawn)
    ?, 7, 0.9
> C/C=C/c1ccc([C@H]2[C@@H](CNC(=O)C3CC3)N(C(=O)CC)[C@H]2CO)cc1
    1, -2, 3.1
> O=C(NC[C@H]1N[C@H](CO)[C@@H]1c1ccccc1)C1CCCC1
    -4, -6, 2.3
> C[C@@H]1CN([C@@H](C)CO)C(=O)c2cccc(NC(=O)c3cnccn3)c2O[C@H]1CN(C)C(=O)NC1CCCCC1
    1, -2, 2.9
> COc1ccc2c3c([nH]c2c1)[C@H](CO)N(C(=O)Nc1c(C)noc1C)CC31CN(CC2CCOCC2)C1
    10, -1, 11
> CN(C)c1ccc2c(c1)[C@@H]1C[C@@H](CC(=O)NCc3ccccn3)O[C@H](CO)[C@@H]1O2
    9, 6, 2.8
> COc1ccccc1C#Cc1ccc([C@@H]2[C@H](CO)N3CCCCN(S(C)(=O)=O)C[C@@H]23)cc1
    ?, ·, ·
> COc1ccc2c3c([nH]c2c1)[C@@H](CO)N(C(=O)Nc1c(C)noc1C)CC31CCN(CC2CCCCC2)CC1
    1, -3, 3.6

Following part.
Values run as follows: DUX4 inh, DUX4 inh difference, DUX4 inh control
> CC(=O)Nc1ccc2c(c1)C(=O)N(C)[C@H]1CC[C@H](CC(=O)NC3CCCCC3)O[C@@H]1CO2
    0, 2, -1.2
> CC(C)NC(=O)N1CC[C@@H]2[C@H]1c1cc(Br)ccc1N(C)[C@H]2CO
    25, 14, 11
> O=C(NC1CCCC1)[C@H]1[C@H](CO)[C@H]2Cn3c(ccc(-c4ccncc4)c3=O)[C@H]2N1CCc1ccccc1
    1, -9, 9.9
> COCC(=O)Nc1ccc2c(c1)C(=O)N(C)[C@H]1CC[C@@H](CC(=O)NCc3ccc(OC)cc3)O[C@H]1CO2
    6, 3, 3.0
> CC[C@H]1CC=CC[C@@H](C)Oc2ccccc2C(=O)N(C)[C@H](Cc2ccccc2)C(=O)N1 (mixture of isomers)
    -3, -3, -0.2
> C[C@@H]1CN([C@H](C)CO)C(=O)c2cccc(N(C)C)c2O[C@H]1CN(C)S(=O)(=O)c1cccs1
    5, 1, 3.5
> O=C(Nc1cc(F)ccc1F)N1CC(=O)N2[C@H](C1)[C@@H](c1ccc(-c3ccc(F)cc3)cc1)[C@@H]2CO
    ?, ·, ·
> C[C@@H]1CN([C@@H](C)CO)C(=O)Cc2cc(NC(=O)C3CCCCC3)ccc2O[C@@H]1CN(C)Cc1ccc(C(=O)Nc2ccccc2N)cc1
    2, 3, -1.2
> O=C(C[C@@H]1C[C@@H]2c3cc(NC(=O)c4ccc5c(c4)OCO5)ccc3O[C@@H]2[C@@H](CO)O1)NCc1ccc(Cl)cc1
    4, 2, 2.3
> O=C(NC1CCCC1)[C@H]1[C@H](CO)[C@H]2Cn3c(cccc3=O)[C@H]2N1C(=O)NC1CCCC1
    6, 5, 1.2
> C[C@H](CO)N1C[C@H](C)[C@@H](CN(C)S(=O)(=O)c2ccc(Cl)cc2)OCc2ccccc2-c2c(n(C)c3ccccc23)C1=O
    ?, ·, ·
> O=S(=O)(c1ccccc1)N1C[C@@H]2[C@H](c3ccccc31)[C@H](CO)N2Cc1ccc(F)cc1
    -1, -1, 0.7
> Cn1cnc(CCNC(=O)C[C@@H]2CC[C@@H]3[C@H](COC[C@@H](O)CN3C(=O)Nc3ccc(C(F)(F)F)cc3)O2)c1
    0, 1, -1.0
> CN(C)C(=O)c1ccc(-c2ccc([C@@H]3[C@H](C#N)N(C(=O)C4CC4)[C@H]3CO)cc2)cc1
    2, 1, 0.5

Assay outcomes as filed in PubChem BioAssay.

Some of the compounds tested. The share of hits here may be higher or lower than overall.
